Bioassay records as filed in PubChem.
A488 autofl = qHTS Assay for Spectroscopic Profiling in A488 Spectral Region; compound autofluorescence, A488 spectral region, dye equivalency; active compounds read high; max dye equivalency, M; 0.1% of 59,000 active; AID 591, 2007; active = above 10 nM dye equivalent; inconclusive = 1 to 10 nM; inactive = 1 nM or less; about half of its hits are not listed in these tables;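 also: highest value over a series up to 38 µM; compound alone in buffer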
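Autofluorescence read at ex 480/em 540 nm after 15 min RT in 100 mM Tris pH 8.0; compound signal normalized to A488 standard series on each plate, reported as dye-equivalent concentration at each test concentration.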
A647 fluor = qHTS Assay for Spectroscopic Profiling in A647 Spectral Region | Compound fluorescence, A647 channel (570/671 nm), Tris buffer | max dye-equivalent concentration, M | 59,000 tested, under 10 active; active means above 1 µM dye equivalent; inconclusive means 0.1 to 1 µM; inactive means 0.1 µM or less;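 also: values scaled relative to a standard on each plate; highest value over a series up to 38 µM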
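Tris 100 mM pH 8.0; cpd + A647 stds pin-transferred; 15 min RT; CCD imager, ex 570/em 671. Output = A647-equivalent conc. per cpd conc.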
Resorufin autofl = qHTS Assay for Spectroscopic Profiling in Resorufin Spectral Region. Compound fluorescence, resorufin region 547/598 nm, buffer; active compounds read high. max dye-equivalent concentration, M. 0.04% of 59,000 active; active = above 10 nM dye equivalent; inconclusive = 1 to 10 nM; inactive = 1 nM or less; a few of its hits are not listed in these tables; also: highest value over a series up to 38 µM
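Intrinsic fluorescence profiled in the resorufin window (ex 547 nm, em 598 nm) after 15 min at room temperature in pH 8.0 Tris buffer (100 mM); responses normalized against a six-point resorufin standard series as dye-equivalent concentration.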
TSHR agonist = qHTS Assay for Agonists of the Thyroid Stimulating Hormone Receptor. Thyrotropin receptor (Homo sapiens), P16473. HEK293-CNG-TSHR cells (CNG channel as cAMP sensor), membrane potential dye, cAMP. Potency, µM (doses to about 57.1 µM), inactives show at the top dose activation, hits mostly activators. 0.48% of 73,000 active. AID 926, 2007; active = well fitted activation curve of enough size with the parental cells flat; inconclusive = any curve in the parental cells; inactive = parental cells flat and receptor cells flat or falling; also: potency is read from the fitted curve at half-maximal effect; % of control where 0% means no effect; weak receptor curves with flat parental cells got no call and are not listed
Target sequence (P16473 whole entry, looked up): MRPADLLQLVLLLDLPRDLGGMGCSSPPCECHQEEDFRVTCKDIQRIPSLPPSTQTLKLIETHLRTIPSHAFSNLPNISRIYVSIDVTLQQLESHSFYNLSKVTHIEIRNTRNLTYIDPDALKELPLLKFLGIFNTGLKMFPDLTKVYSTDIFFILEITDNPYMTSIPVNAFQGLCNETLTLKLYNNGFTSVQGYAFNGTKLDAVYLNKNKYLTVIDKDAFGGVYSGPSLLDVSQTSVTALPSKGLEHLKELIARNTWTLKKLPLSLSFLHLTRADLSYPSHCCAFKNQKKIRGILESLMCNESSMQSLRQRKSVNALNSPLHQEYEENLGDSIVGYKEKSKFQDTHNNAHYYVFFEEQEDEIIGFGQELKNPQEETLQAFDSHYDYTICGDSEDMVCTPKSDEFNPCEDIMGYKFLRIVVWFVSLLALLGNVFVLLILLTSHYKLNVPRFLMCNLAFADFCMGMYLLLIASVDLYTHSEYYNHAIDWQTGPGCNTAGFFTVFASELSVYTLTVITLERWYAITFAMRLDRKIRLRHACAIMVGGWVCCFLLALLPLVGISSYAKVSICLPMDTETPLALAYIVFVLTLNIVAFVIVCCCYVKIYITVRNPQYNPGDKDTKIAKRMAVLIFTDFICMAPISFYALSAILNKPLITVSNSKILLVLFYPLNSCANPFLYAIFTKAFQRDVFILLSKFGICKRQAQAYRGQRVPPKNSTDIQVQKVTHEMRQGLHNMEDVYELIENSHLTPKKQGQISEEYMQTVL
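HEK 293 cells stably expressing TSHR and a cAMP-gated CNG channel; parental CNG-only cells as counterscreen. Cells preloaded 60 min with membrane potential dye plus 100 uM RO 20-1724, then compound 30 min; fluorescence read at 590 nm.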
AID923 = qHTS Assay for Allosteric/Competitive Inhibitors of Caspase-1: Spectroscopic Profiling in AFC Spectral Region | compound fluorescence, AFC spectral region (405/520 nm); almost no hit is shown here | Potency, µM (series often up to 57.5 µM), inactives show at the top dose fluorescence increase, actives largely listed as activators | 1.1% of 75,000 active; active = well fitted activation curve with a large enough effect; inconclusive = small, poorly fitted or top-dose-only effect;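 also: potency is read from the fitted curve at half-maximal effect; 0% is about no effect; scaled to a free AFC standard on each plate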
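Titrations up to 57 uM read every 20 sec for 3 min (405/520 nm) with 50 nM caspase 1 and 5 uM Ac-WEHD-AFC, pH 7.5 HEPES buffer. Fluorescence-vs-time intercept gave baseline, scaled against on-plate AFC standard.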
* = called active by the depositor; i = inactive; ? = inconclusive; · = not tested or not shown; & = joins results of further samples; [ ] = remark or other dose.

SMILES	A488 autofl	A647 fluor	Resorufin autofl	TSHR agonist	AID923
Cc1c(NC(=O)C23CC4CC(CC(C)(C4)C2)C3)c(=O)n(-c2ccccc2)n1C	i	8.3e-09	i	-2.8%	-2.6%
COc1cc(NC(=O)CC(C)C)ccc1NC(=O)c1ccco1	·	·	·	-3.0%[11.4 µM]	-1.7%
Cc1noc(C)c1COc1cccc(C(=O)N2CCN(C/C=C/c3ccccc3)CC2)c1	i	1.24e-08	i	?	0.6%
Cc1cc2ccccc2n2c(SCC(=O)N3CCN(C(=O)c4ccco4)CC3)nnc12	i	3.8e-09	i	-1.9%	1.1%
Cc1noc(C)c1CN1C(=O)NC2(CCCCCCC2)C1=O	i	1.22e-08	i	-3.4%	-1.0%
COc1ccc(C2c3c(oc4ccc(Cl)cc4c3=O)C(=O)N2Cc2ccco2)cc1OC (configuration not stated)	i	7e-09	i	-11.0%	2.9%
O=C(Cn1cc(C(=O)c2cccs2)c2ccccc21)NCC1CCCO1 (configuration not stated)	i	1.03e-08	i	8.5%	0.0%
Cc1cc(OCC(=O)O)c(Cl)cc1Cl	i	1e-09	i	-1.3%[11.4 µM]	-1.0%[11.5 µM]
C=CCn1c(NCc2ccccc2)nc2ccccc21	i	2.16e-08	i	16.1%	-0.8%
CCOC(=O)C1CCN(C(=O)Cn2cc(C(=O)C3CC3)c3ccccc32)CC1	i	2.29e-08	i	8.2%	0.7%
Cc1ccc2c(c1)N(CC(=O)NCc1cccs1)C(=O)CO2	i	2.7e-09	i	?	-0.8%
O=C(NCCCN1CCCC1=O)C1CCN(S(=O)(=O)N2CCOCC2)CC1	i	1e-09	i	0.7%	0.6%
Cc1ccc(-c2noc(CSc3nnnn3C3CCCCC3)n2)cc1	·	·	·	25.1µM*	-0.3%
CCOC(=O)c1ccc(N=Cc2nc3ccccc3n2C)cc1	·	·	·	18.0%	0.7%
CC1(C)Cc2c(C#N)c(N3CCN(C(=O)c4ccco4)CC3)nc(-c3ccco3)c2CS1	i	1.2e-09	i	·	·
Cc1cc(C)cc(NC(=O)C2CCCC2)c1	i	4.7e-09	i	13.2%	-0.9%
CSc1ccc(C2C(C#N)=C(N)Oc3c2ccc(=O)c2c(C)oc(C)c32)cc1 (configuration not stated)	i	7.5e-09	i	6.2%[11.4 µM]	8.5%
O=C(CCCSc1nc2ccccc2[nH]1)NCc1ccco1	i	1e-09	i	2.5%	-1.7%
COC(=O)c1cn(NC(=O)C2CCCO2)c(=O)c2ccccc12 (configuration not stated)	i	2.12e-08	i	-0.9%	0.0%
O=C(COc1ccc(F)cc1)Nc1ccc(-n2cnnn2)cc1	·	·	·	6.0%	-0.5%
Nc1cccc(C(=O)Nc2ccccc2Cl)c1	·	·	·	-5.7%	0.0%
CCN(CC)CCNC(=O)Cc1c(C(=O)O)n(C)c2ccccc12	i	5.7e-09	i	6.9%	3.1%
CCOc1ccccc1OCC(=O)Nc1nnc(C)s1	i	3.6e-09	i	2.8%	0.4%
COc1ccccc1OCC(=O)Sc1ccc(C)cc1	·	·	·	-20.3%	1.7%
CC(=O)N(C)c1ccc(OCC(O)COc2ccc(N(C)C(C)=O)cc2)cc1	i	1.99e-08	i	8.2%	-1.7%

Entries of single compounds as entered above:
Listed for COc1cc(NC(=O)CC(C)C)ccc1NC(=O)c1ccco1 → A488 autofl = ·; A647 fluor = ·; Resorufin autofl = ·; TSHR agonist = -3.0%[11.4 µM]; AID923 = -1.7%
Listed for Nc1cccc(C(=O)Nc2ccccc2Cl)c1 → A488 autofl = ·; A647 fluor = ·; Resorufin autofl = ·; TSHR agonist = -5.7%; AID923 = 0.0%
Listed for Cc1noc(C)c1COc1cccc(C(=O)N2CCN(C/C=C/c3ccccc3)CC2)c1 → A488 autofl = i; A647 fluor = 1.24e-08; Resorufin autofl = i; TSHR agonist = ?; AID923 = 0.6%

Back to the main list; the two compounds before the break are reprinted first.
SMILES	A488 autofl	A647 fluor	Resorufin autofl	TSHR agonist	AID923
COc1ccccc1OCC(=O)Sc1ccc(C)cc1	·	·	·	-20.3%	1.7%
CC(=O)N(C)c1ccc(OCC(O)COc2ccc(N(C)C(C)=O)cc2)cc1	i	1.99e-08	i	8.2%	-1.7%
Cn1c(=O)c2cc(S(=O)(=O)NC(C(=O)Nc3cccnc3)c3ccccc3)ccc2n(C)c1=O (configuration not stated)	·	·	·	3.2%	-4.2%
Cc1ccc(N(CC(=O)NCc2ccco2)C(=O)CCC(=O)Nc2ccccn2)cc1C	i	2.14e-08	i	7.7%	0.8%
O=C1CCc2cc(S(=O)(=O)N3CCN(c4cccc(C(F)(F)F)c4)CC3)ccc2N1	i	3.1e-09	i	3.1%	0.1%
CN(c1cccc(NC(=O)CCSc2ccccc2)c1)S(C)(=O)=O	i	1e-09	i	7.0%	-3.9%
CCOC(=O)N1CCC(NC(=O)C2CCN(S(=O)(=O)c3cccs3)CC2)CC1	i	1e-09	i	3.2%	0.9%
COC(=O)C1=C(C)N(Cc2ccccc2)C2=C(C(C)=O)C[C@@](O)(C(=O)OC)C(=O)N2C1c1ccccc1 (some centres not stated)	·	·	·	-6.4%&4.6%[11.4 µM]	-0.3%&2.8%[11.5 µM]
CCCC/C=C/C(NC(=O)OCc1ccccc1Cl)c1ccccc1 (configuration not stated)	·	·	·	14.5%	-0.5%
O=C(CSc1nc2ccccc2o1)N1CCCC1	i	3.41e-08	i	-8.5%	-1.3%
CC1CC(c2ccccc2)n2nc(N3C(=O)c4ccccc4C3=O)nc2N1 (configuration not stated)	i	5.3e-09	i	8.8%	0.5%
COc1ccc(NC(=O)N2CCC3(CC2)CCN(C(=O)c2cccn2C)CC3)cc1	i	1e-09	i	3.1%	0.4%
COC(=O)C(C)Sc1nc2c(c(=O)n(C)c(=O)n2C)n1Cc1cccc(C)c1 (configuration not stated)	i	1e-09	i	?	-1.2%
O=C(CN1CCN(c2nc(-c3ccc(F)cc3)cs2)CC1)NCc1ccc2c(c1)OCO2	i	4.3e-09	i	?	4.9%
CCCC1C2C(=O)N(c3ccccc3OC)C(=O)C2ON1c1ccccc1 (configuration not stated)	i	1.78e-08	i	·	·
CCOC(=O)N1CCC(NC(=O)c2ccc3c(c2)sc2nc(-c4cccc(OC)c4)cn23)CC1	·	·	·	-2.5%	0.1%
Cc1[nH]nc2c1C(c1ccc(-c3ccccc3C#N)o1)C(C#N)=C(N)O2 (configuration not stated)	i	7.4e-09	i	-4.0%	9.9%
O=c1c2ccccc2nnn1CSc1nc2ccccc2c(=O)n1Cc1ccco1	i	1.1e-09	i	?	0.6%
OC(C#CCN1CCOCC1)(c1ccccc1)C1CC1 (configuration not stated)	i	2.72e-08	i	5.6%	-0.3%
CC(CN1CCOCC1)(NS(=O)(=O)c1ccccc1)c1ccccc1 (configuration not stated)	i	4.2e-09	i	11.3%	-2.1%
Cc1ccccc1CS(=O)(=O)Cc1ccc(C(=O)NCc2ccco2)o1	i	3.22e-08	i	8.3%	-0.9%
O=C(O)CCCNS(=O)(=O)c1ccc(F)cc1	·	·	·	5.9%	2.9%
CCOc1ccc(C(=O)Nc2cccc(-c3nc4cccnc4o3)c2)cc1Cl	i	1e-09	i	2.6%	1.6%
COc1ccccc1Oc1coc2c(CN3CCN(C)CC3)c(O)ccc2c1=O	i	1.17e-08	i	1.9%	13.1%
N#Cc1c2n(c3c(-c4ccccc4)ncnc13)CCC2	·	·	·	-5.6%	1.8%
CSc1nnc(-c2ccc(NC(=O)CCc3ccccc3)cc2)n1C	i	4.6e-09	i	-0.1%	5.0%
O=C(CSc1ccccc1)NCc1cccnc1	·	·	·	-0.8%	1.7%

(listing goes on)
SMILES	A488 autofl	A647 fluor	Resorufin autofl	TSHR agonist	AID923
COc1ccc(C2C(C(=O)N3CCN(c4ccccc4)CC3)c3ccccc3C(=O)N2C)cc1 (configuration not stated)	i	1e-09	i	?	0.9%
CCOc1ccc(N2CC(C(=O)Nc3ncccc3C)CC2=O)cc1 (configuration not stated)	·	·	·	6.0%	0.8%
COc1ccc(-c2ccc(-c3nnc(-c4cc(OC)ccc4OC)o3)cc2)cc1	i	1.3e-09	i	6.8%[11.4 µM]	-1.1%
CC(C)N(C(=O)CSc1nnc(NC(=O)C2CCC2)s1)C(C)C	i	2.99e-08	i	6.7%	1.4%
Cc1c(NC(=O)COC(=O)c2cc3c4ccccc4n(C)c3s2)c(=O)n(-c2ccccc2)n1C	i	6e-09	i	19.9%	-3.5%
Cc1cc(-n2c(C)cc(C(=O)CN3C(=O)NC4(CCCC4)C3=O)c2C)no1	i	1e-09	i	3.4%	-1.3%
O=C(NCCCn1ccnc1)c1cc(S(=O)(=O)N2CCOCC2)c(Cl)cc1Cl	i	3.92e-08	i	14.1%[11.4 µM]	-1.3%
CCCCc1nc2ccccc2c(=O)n1NC(=O)c1c(O)c2cccc3c2n(c1=O)CC3	i	2.22e-08	i	-3.5%	0.8%
CCC(=O)N1CCc2cc(Br)cc(S(=O)(=O)NCC3CCCN3CC)c21 (configuration not stated)	i	1e-09	i	6.5%[11.4 µM]	2.9%
CN1CCN(S(=O)(=O)c2ccc(N(C)CC(=O)Nc3ccc(F)cc3)nc2)CC1	i	1.45e-08	i	-0.4%	-0.3%
O=C(NCc1ccco1)C(c1ccccc1)N(Cc1cccnc1)C(=O)Cn1nnc2ccccc21 (configuration not stated)	i	3.2e-09	i	20.6%	0.9%
COc1cccc(-c2cncnc2NCCN2CCOCC2)c1	i	1e-09	i	6.4%	1.2%
CCCCN1CSC(=S)N(Cc2ccccc2)C1	i	1e-09	i	-1.0%[11.4 µM]	0.5%[11.5 µM]
CC1CCN(C(=O)CN2C(=O)C(C)(C)Oc3ccc(C(=O)NC4CCCC4)cc32)CC1	i	1e-09	i	?	-3.0%
CCCCn1nc(C(=O)NC2=NCCS2)c2ccccc2c1=O	i	1e-09	i	2.2%	-1.6%
N#Cc1cn(-c2ccccc2)nc1-c1ccc2c(c1)OCCO2	i	2.78e-08	i	?	0.0%
C=CCn1c(SCC(=O)Nc2cccc(C(=O)OC)c2)nnc1C(C)NC(=O)c1cccs1 (configuration not stated)	i	2.1e-09	i	6.8%	-2.9%
O=c1c(-c2cccc(Cl)c2)nc2cncnc2n1-c1ccccc1	i	2.13e-08	i	?	8.5%
CCCc1nc2oc(C(=O)OCC)c(N)c2c2c1COC(C)(C)C2	i	3.8e-09	i	·	3.9%
Cc1ccc(S(=O)(=O)N2CCC(C(=O)N3Cc4ccccc4C3)CC2)cc1	i	1e-09	i	18.0%	-1.5%
CC(C(=O)NCc1cccnc1)N1C(=O)c2ccccc2C1=O (configuration not stated)	i	2.64e-08	i	-1.1%	0.0%
CCn1cc(CNC(=O)c2cc(Cl)ccc2OC)c(C)n1	·	·	·	?	-1.0%
CC(=O)N1CCC2(CC1)CN(Cc1cc(C(F)(F)F)cc(C(F)(F)F)c1)C2	i	3.32e-08	i	18.9%	0.7%
COC(=O)CN(c1ccccc1)S(=O)(=O)c1ccccc1	·	·	·	?	9.5%
O=C(c1ccco1)N1CCN(c2ncnc3c2cnn3-c2ccccc2)CC1	i	1.14e-08	i	25.2%	0.6%
NC(=O)/C(=N\O)c1ccccc1	i	3.17e-08	i	·	·
CCNC(=O)[C@@H]1O[C@@H](n2cnc3c(N)nc(NCCc4ccc(CCC(=O)O)cc4)nc32)[C@H](O)[C@@H]1O	i	3.7e-09	i	·	-3.1%

Quoted from the listing.
AID923 with CCn1cc(CNC(=O)c2cc(Cl)ccc2OC)c(C)n1 is entered as -1.0%
TSHR agonist with CSc1nnc(-c2ccc(NC(=O)CCc3ccccc3)cc2)n1C is entered as -0.1%

Only part of the results is shown, so the mix of outcomes need not match the whole.
